# From PubChem
# ClpP mod = qHTS Assay for Activators of ClpP; ATP-dependent Clp protease proteolytic subunit (Bacillus subtilis (strain 168)), P80244; purified B. subtilis ClpP, FRET peptide cleavage, 20 min; AID 651965, 2013; Potency, µM (series often up to 57.5 µM), inactives show at the top dose activity change, negative = active; actives 1.9% (n = 340,000); active = well fitted falling curve with a large enough effect; inconclusive = small, poorly fitted or top-dose-only effect; inactive = no such curve, though single readings can be large or run the other way; also: potency is read from the fitted curve at half-maximal effect; the source files actives as falling curves though it sought activators and does not explain the sign; nearly all actives have a fitted effect of over 65% in size; many hits overshoot -100%
# Target sequence (P80244 whole entry, looked up): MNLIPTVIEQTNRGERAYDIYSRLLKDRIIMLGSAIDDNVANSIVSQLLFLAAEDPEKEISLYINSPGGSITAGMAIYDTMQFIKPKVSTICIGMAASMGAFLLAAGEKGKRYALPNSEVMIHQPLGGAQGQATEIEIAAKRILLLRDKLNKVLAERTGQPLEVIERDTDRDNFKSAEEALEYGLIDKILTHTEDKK
#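 Buffer: 100 mM Tris/HCl pH8, 100 mM KCl, 0.05% low protease BSA, 2.5% glycerol, 0.01% Tween-20. ClpP 10 microg/mL final; 20 min RT; delta FRET normalized to ADEP and DMSO controls.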
# gsp agonist = activates gsp, the McCune-Albright syndrome mutation; gsp mutant cells, cAMP HTRF, 30 min; control for the full effect not named in the record; Potency, µM (titrated, usually from 76.9 µM), for inactives: top-dose activation (cAMP increase), hits mostly activators; actives 0.13% (n = 340,000); AID 624287; active = well fitted activation curve with a large enough effect; inconclusive = small, poorly fitted or top-dose-only effect, or another doubt; inactive = no such curve, though single readings can be large or run the other way; cell line not stated here;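 also: phosphodiesterase inhibitor Ro 20-1724 added with compounds to block cAMP breakdown; potency is read from the fitted curve at half-maximal effect; nearly all actives have a fitted effect of over 60% in size; about a fifth of the inactives were tested at one dose only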
#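 Cells in DMEM/10% FBS with G418 were pretreated with compounds in DMSO plus […] (300 uM stock) for 30 min at 37C. cAMP was measured by HTRF (cAMP-d2 plus anti-cAMP antibody-K) after 30 min at room temperature.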
# Sfp PPTase inh = blocks B. subtilis Sfp PPTase activity; Potency, µM, inactives show max response, negative = inhibition, most hits filed as inhibitors; Biochemical Sfp PPTase activity, qHTS; AID 1490; Q9F4F7; actives 3.5% (n = 310,000); active = well fitted inhibition curve with a large enough effect; inconclusive = small, poorly fitted or top-dose-only effect, or another doubt; inactive = no such curve, though single readings can be large or run the other way;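 also: the enzyme is Sfp with the accession as filed and its product quenches rhodamine fluorescence; potency is read from the fitted curve at half-maximal effect; 0% = enzyme reaction without inhibitor and -100% = no enzyme wells; top concentration of the series not given in the record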
#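 Reaction rates are the 30-min fluorescence difference (ex 525, em 598 nm) in wells containing 15 nM Sfp, 5 uM rhodamine-CoA and 12.5 uM BHQ-2-YbbR at pH 7.6 with 10 mM MgCl2.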
# gsp antag = gsp mutant antagonism; gsp-mutant cells, cAMP HTRF, 30 min; control for the full effect not named in the record; Potency, µM (top dose mostly 76.9 µM), without a hit: top-dose activity change, negative = inhibition, actives largely listed as inhibitors; actives 0.4% (n = 340,000); active = falling curve of any shape with a large fitted effect; inconclusive = falling curve, mostly with a smaller effect; inactive = flat or rising curve; cell line not stated here;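 also: intracellular cAMP measured with PDE inhibitor Ro 20-1724 present during compound exposure; potency is read from the fitted curve at half-maximal effect; % is scaled to controls: 0 for no effect and ±100 for the full control effect; nearly all actives have a fitted effect of over 65% in size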
#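 G418-selected cells were plated in DMEM/10% FBS for 16-24 h at 37C, then treated with compounds plus the PDE inhibitor […] (300 uM solution added) for 30 min at 37C. Intracellular cAMP was measured by HTRF after 30 min lysis at room temperature.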
# PINK1 expr mod = PINK1 expression modulation; PINK1 immunofluorescence, high-content cytometry, 24 h; Potency, µM (doses to about 76.6 µM), for inactives: at the highest dose activation (PINK1 increase), most hits filed as activators; actives 0.2% (n = 410,000); AID 624263; active = well fitted activation curve with a large enough effect; inconclusive = small, poorly fitted or top-dose-only effect; inactive = flat fitted curve, though single readings scatter; cell line not stated here;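 also: potency is read from the fitted curve at half-maximal effect; % of control where 0% means no effect; nearly all actives have a fitted effect of over 65% in size; a mitochondrial uncoupler was the plate control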
#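 A stable cell line was treated with compounds at 5 concentrations for 24 hours, with CCCP as control. PINK1 levels and mitochondrial localization were measured by immunofluorescence with mitochondrial, cell and nuclear markers after fixation, read by laser-scanning cytometry.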
# Menin MLL FP FL = menin-MLL binding inhibition, fluorescein peptide. 290,000 tested, under 10 active. Fluorescence polarization, fluorescein-MLL peptide displacement from menin. AID 1766. FP activity change, % at 61.4 µM; inconclusive = falling polarisation curve, or a change in total fluorescence; inactive = total fluorescence flat and polarisation flat or rising; no compound was filed as active; the % refers to the polarisation; negative = inhibition;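 also: % of control where 0% means no effect; inhibitors lower the polarisation; unlabelled MLL peptide was the positive control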
# D2 ag = agonists of human D2 dopamine receptor (beta-arrestin). actives 0.084% (n = 360,000). activation, % (no concentration beside the values). P14416. DiscoveRx PathHunter D2 beta-arrestin, luminescence, 90 min; 100% = 57 uM dopamine signal; in the data active = activation above about 40%; inconclusive = about 15% to 40%; inactive = below about 15%; also: compound concentration not given in the record; the text of the record calls up to 30% inactive
# Target sequence (P14416 whole entry, looked up): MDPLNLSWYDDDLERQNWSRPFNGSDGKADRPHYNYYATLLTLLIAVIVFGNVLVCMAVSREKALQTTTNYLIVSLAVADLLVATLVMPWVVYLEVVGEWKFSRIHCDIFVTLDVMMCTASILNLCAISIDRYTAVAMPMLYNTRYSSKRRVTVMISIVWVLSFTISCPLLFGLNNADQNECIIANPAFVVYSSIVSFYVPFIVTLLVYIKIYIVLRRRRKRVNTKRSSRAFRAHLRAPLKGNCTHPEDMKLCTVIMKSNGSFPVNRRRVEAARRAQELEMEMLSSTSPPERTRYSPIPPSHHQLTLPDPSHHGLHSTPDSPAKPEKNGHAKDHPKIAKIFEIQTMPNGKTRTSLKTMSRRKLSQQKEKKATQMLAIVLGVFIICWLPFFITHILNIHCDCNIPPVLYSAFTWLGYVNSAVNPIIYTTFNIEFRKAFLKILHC
#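 DiscoveRx PathHunter D2 beta-arrestin cells (2,100/well) attached overnight, then compound-stimulated 90 min at 37 C in HBSS/10 mM HEPES/0.1% Tween-20 buffer; beta-galactosidase complementation read by luminescence after 1 h at ambient temperature. Dopamine 57 uM final (EC100) as control.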
# * = called active by the depositor; ? = inconclusive; . = no result given; & = joins results of further samples; [ ] = remark or other dose.
SMILES,ClpP mod,gsp agonist,Sfp PPTase inh,gsp antag,PINK1 expr mod,Menin MLL FP FL,D2 ag
CCCCC(=O)NC(=S)NNC(=O)c1ccc(Cl)cc1Cl,-1.4%,2.6%[15.4 µM],?,10.8%,1.4%,-0.3,-7.1
O=C(Nc1cccc(NC(=O)C2CC2)n1)C1CC1,-3.0%,?,-25.1%,8.9%,0.2%,-1.6,1.2
CCCC[n+]1ccn(-c2nc3ccccc3nc2[N-]S(=O)(=O)c2ccccc2)c1,-12.9%,14.3%,8.4%,3.5%,5.7%[38.3 µM],1.4,-3.4
CC(=O)c1cc2c(C)c(C(=O)c3ccccc3)oc2cc1O,-1.5%,-6.5%,-13.7%,-14.6%,3.3%,?,-3.3
CCOC(=O)N1CCN(C(=O)CSc2ccc3nnc(CCNC(=O)c4ccccc4)n3n2)CC1,.,12.6µM*,18.4%,10.5%,4.7%,-4.5,-0.4
O=C(Nc1cccc(C(F)(F)F)c1)C1Cc2c(-c3ccccc3Oc3ccccc3)ccnc2O1 (stereo unspecified),-7.3%,.,.,.,8.0%,.,5.4
Cc1nc2ccccc2n1CC(O)Cn1c2ccccc2c2ccccc21 (stereo unspecified),-23.0%,11.3%,12.4%,10.5%,20.9%[38.3 µM],-6.3,-1.6
NC(=O)c1ccsc1NC(=O)c1ccc(S(=O)(=O)N2CCCCC2)cc1,-0.1%,-26.0%,-17.7%,-13.4%,0.7%,15.9,-2.9
O=C(Cn1nnc(-c2cccc(C(F)(F)F)c2)n1)NC1CCCC1,0.1%,1.3%,2.5%,1.8%,0.8%,3.8,-2.0
C/C(CC(=O)Nc1ccc(Cl)cc1Cl)=N\NC(=O)C(=O)NCCO,26.8%,-32.4%[inhibitor],-0.5%,-13.1%,-0.9%,1.2,-0.6
O=C1NC2=C(C(=O)CCC2)C(c2ccc(OC(F)F)cc2)N1 (stereo unspecified),.,11.1%,-9.1%,6.5%,2.6%,1.1,-2.5
CC1=C(C(=O)N(C)C)CC(CC(=O)NC2CCCC2)C(=O)N1Cc1ccc(F)cc1 (stereo unspecified),0.9%,37.4%,.,.,2.3%,.,-0.6
CC(C)Oc1ccc(C(=O)Nc2cc(S(=O)(=O)N3CCOCC3)ccc2N2CCOCC2)cc1,-2.4%,7.2%,.,-22.6%,?,.,-1.1
CCC1=C(OC(=O)N(CC)CC)N2C(=O)OC(=NCC(=O)OC)[C@]2(Cc2ccccc2)[C@H]2C1=CC[C@H]1C(=O)NC(=O)[C@H]12,-3.4%,.,14.9%&6.2%,6.4%,-1.2%,-2.8&2.6,-4.1
O=C(CC(SCCO)c1ccc(F)cc1)c1ccco1 (stereo unspecified),1.1%,13.3%,-1.3%,2.1%,-2.5%,1.5,-3.3
COc1cccc(CN2CCc3ccc(NC(=O)CCc4ccc(C)cc4)cc3C2)c1O,-0.5%,-41.4%[inhibitor],4.5%,-1.3%,0.5%,.,-7.2
CC(C)(C)c1csc(NC(=O)Nc2ccccc2)n1,.,-5.2%[15.4 µM],9.5%,2.8%,9.0%,-2.8,0.8
Cc1cc(CNC(=O)COc2cc(F)ccc2[N+](=O)[O-])c2ccccc2n1,.,?,15.9%,-3.7%,1.0%,2.9,2.5
Cc1ccc(N(C(=O)Cn2nnc(-c3ccc(F)cc3)n2)C(CC(C)C)C(=O)NCC2CCCO2)cc1 (stereo unspecified),-2.3%,-18.7%,14.5%,2.9%,2.5%,1.3,1.1
COc1ccc(CCNC(=S)NCCc2c[nH]c3ccccc23)cc1,-3.0%,18.2%,32.4%[activator],-17.4%,-1.0%,1.6,-0.8
CCC(C(N)=NCCc1ccc(OC)c(OC)c1)c1ccccc1 (stereo unspecified),-1.3%,?,11.0%,2.9%,-2.9%,2.2,-7.9
C=CCOc1ccc(CN(C)C(=O)CN2C(=O)c3ccccc3C2=O)cc1,.,-3.2%,-0.4%,-3.6%,0.4%,0.5,-3.7
CCN1CCN(S(=O)(=O)c2ccc(OC)c3ccccc23)CC1,.,22.7%,-1.4%,-2.5%,0.6%,-6.2,0.5
COc1cc(-c2nnc(-c3ccc(S(=O)(=O)c4ccccc4)cc3)o2)cc(OC)c1OC,?,?,4.1%,0.2%,6.5%,-0.9,-2.9
O=C(COC(=O)c1n[nH]c(=O)c2ccccc12)NC1CCCCC1,0.4%,28.6%,.,6.0%,0.2%,.,-4.0
Cc1cccc(N=C(N2CCOCC2)P(=O)(N2CCOCC2)N2CCOCC2)c1,0.7%,14.1%,18.0%,0.2%,?,2.0,-2.0
Cc1cccc(NC(=O)CNc2cc(C)ccc2C)c1,-2.4%,-14.1%,15.3%,-24.2%,-2.1%,1.9,-1.8
Cc1nnc(-c2ccccc2)c[n+]1[O-],-4.3%,-0.3%,8.0%,12.4%,-0.5%,0.1,-1.7
C[C@H]1CCCCO[C@@H](CN(C)S(=O)(=O)c2ccc(Cl)cc2)[C@@H](C)CN([C@@H](C)CO)C(=O)c2cc(NS(=O)(=O)c3ccccc3)ccc2O1,0.2%,-26.4%,.,.,-0.1%,.,-8.1
O=C(c1ccc(S(=O)(=O)Nc2ccccc2Cl)cc1)N1CCOCC1,-5.7%,14.7%,.,-10.9%,2.2%,.,-2.8
Cc1cc(C)n2nc(C(=O)Nc3ccc(S(=O)(=O)N4CCCCC4)cc3)nc2n1,?,-3.9%,10.7%,-5.1%,3.4%,5.1,-2.8
Cc1ccc(CS(=O)(=O)c2ccccc2-c2nnc(-c3ccc(Cl)cc3)o2)cc1,?,1.4%,4.7%,3.4%,8.5%,2.6,-0.7
O=C(Nc1c(Cl)cccc1Cl)C1CCC1,-1.6%,-18.2%,13.2%,8.0%,14.4%[38.3 µM],-3.9,-3.5
Cc1nc(NC(=O)CC(C)C)sc1-c1csc(Nc2ccc(Cl)cc2)n1,?,.,-4.7%,-0.5%,1.1%,3.5,-2.1
CC(C)(C)NS(=O)(=O)c1ccc2nc(NC(=O)Cc3cccs3)sc2c1,-7.7%,7.7%,-4.8%,11.1%,7.8%,-0.2,-0.2
CN(CC(=O)Nc1ccc(F)cc1)C(=O)COc1ccc([N+](=O)[O-])cc1Cl,.,6.2%[15.4 µM],11.2%,.,1.1%,5.0,-5.9
Cn1ccnc1C1CCCCN1Cc1nc(-c2ccc3c(c2)OCO3)no1 (stereo unspecified),-0.2%,0.2%[15.4 µM],18.0%,-9.0%,2.7%,0.2,10.6
COc1cc2c(cc1OC)C(C)=NC1(CCCCC1)C2,4.6%,3.0%[15.4 µM],20.0%,2.4%,-0.6%,3.8,-1.4
COc1cccc(-c2nn(-c3ccc(C)cc3)cc2C(=O)N2CCc3cc(OC)c(OC)cc3C2)c1,-19.8%,-1.6%,.,?,-2.8%,.,-2.0
CCN1CCN(CCNC(=O)c2ccc(CS(=O)(=O)c3ccccc3C)o2)CC1,-0.8%,8.0%,7.5%,22.6%,1.1%,5.9,-2.7
O=C(NC(Nc1nc2ccc([N+](=O)[O-])cc2s1)(C(F)(F)F)C(F)(F)F)c1ccccc1Cl,1.4%,-1.1%,28.3%,25.1µM*,?,9.5,-4.2
Cc1cc(C)nc(N/N=C/c2ccccc2OCc2ccccc2)n1,0.3%,-1.9%[15.4 µM],-7.8%,-9.0%,2.7%,4.3,0.5
COc1ccc(C(=O)Nc2ccnn2C2CCN(C3CCC3)CC2)cc1,-0.3%,?,12.7%,23.8%,1.1%,.,-0.7
Cn1cc(CNCc2cnc3ccccn23)c(-c2ccc(Oc3ccccc3)cc2)n1,.,26.1%,7.7%,-17.5%,1.8%,-4.6,-6.3
O=S(=O)(c1cccc(C(F)(F)F)c1)N1CCN(CC(O)COCc2ccccc2)CC1 (stereo unspecified),-1.2%,-48.8%[inhibitor],.,3.5%,0.8%,.,0.7
O=C(O)CCc1ccc(-c2cccs2)n1CCc1ccccc1,?,31.1%,20µM*,-13.9%,-2.4%,?,2.7
O=C(Cc1ccccc1F)Nc1ccc2c(c1)CCC2,.,-21.6%[15.4 µM],10.4%,9.3%,1.4%,0.2,-3.5
CC(C)(C)NS(=O)(=O)c1ccc(OCC(=O)NCCC2=CCCCC2)cc1,0.6%,-40.0%[inhibitor],13.1%,-2.3%,.,2.2,-0.6
O=C(NCc1ccc(F)cc1)C1CCN(S(=O)(=O)N2CCC3(CC2)OCCO3)CC1,0.3%,-17.6%,-11.5%,-6.4%,-1.5%[38.3 µM],6.1,1.6
COc1ccc(-c2ccc(C(=O)N3CCN(C)CC3)c3occc23)c(C)c1,-26.0%,.,.,.,1.5%,.,-1.5
CCN(CC(=O)Nc1ccc(NC(C)=O)cc1)C(=O)c1cccc2ccccc12,1.0%,-19.4%,.,1.2%,0.1%,.,11.0
O=C(CCc1nnc2ccc(NCc3ccccc3)nn12)NC1CCCCC1,-3.7%,-29.4%,5.0%,7.9%,-0.2%,.,-5.0
Cc1nc(SCC(=O)N2CCc3ccccc32)n[nH]1,-2.1%,2.1%,12.4%,10.4%,4.3%,-0.9,-1.4
Cc1ccc(NC(=O)C(C)N=C2NS(=O)(=O)c3ccccc32)cc1 (stereo unspecified),-0.1%,-5.3%[15.4 µM],9.8%,3.9%,0.5%,-1.6,-0.3
CC(=O)N1c2ccc(S(=O)(=O)NCC3CCC(C(=O)N4CC(C)CC(C)C4)CC3)cc2CC1C (stereo unspecified),0.1%,-37.8%[inhibitor],13.8%,?,4.6%,-3.7,-2.5
Cc1cc2nnc(SCC(=O)NC3CCCCC3)n2c(N)n1,.,?,9.4%,7.4%,2.0%,-2.5,8.7
CSC1=N/C(=C\c2ccccc2F)C(=O)S1,-10.4%,-4.7%[15.4 µM],56.2µM*,5.2%,0.8%,1.4,-0.1
CCCCC(=O)N1CCN(c2nc3ccc(OCC)cc3s2)CC1,-0.3%,-5.5%,9.8%,4.4%,-0.4%,.,3.9
